# HIV Env fusion = inhibitors of HIV-1 Env-driven cell-cell fusion, primary screen, HeLa-JRFL effector, CEM21 target cells, luciferase | inhibition, % at 12.3 µM | AID 651610, 2012 | actives 1.1% (n = 360,000);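 active means mean replicate inhibition score of at least 50 and every replicate individually at or above 50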;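 further: 0% = plate neutral controls and 100% = maraviroc near 300 nM; one replicate is shown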
# UUG fidelity = modulators of yeast start codon fidelity, primary screen, whole organism, S. cerevisiae, single point, plate reader; actives 0.13% (n = 350,000); activity score, % at 18.7 µM; S. cerevisiae UUG-firefly luciferase reporter, luminescence/redox ratio; AID 602363, 2012;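 active means replicate mean at a twofold rise or more, about +100% in these data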;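 further: firefly luciferase made from a UUG start codon reports start codon fidelity; reporter light over untreated wells divided by growth signal over untreated wells; some hits fall short of that in this replicate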
# * marks the source's active call; other numbers are inactive results; [ ] = another dose, or the depositor's remark. Only part of the results is shown; count on the stated rates, not on these rows.
SMILES,HIV Env fusion,UUG fidelity
C[C@@H]1CN([C@@H](C)CO)C(=O)c2cc(C#CC3CCCC3)cnc2O[C@H]1CN(C)C(=O)C1CC1,12.9[16.7 µM],3.2
CC(C)NC(=O)NCC[C@H]1CC[C@@H](NS(=O)(=O)c2ccc(-c3ccccc3)cc2)[C@@H](CO)O1,8.6[16.7 µM],12.1
C[C@@H]1CN([C@H](C)CO)C(=O)c2cc(NC(=O)Nc3ccccc3)ccc2O[C@@H]1CN(C)Cc1ccccc1,-12.3[16.7 µM],-3.9
Cc1noc(C)c1NC(=O)Nc1ccc2c(c1)C(=O)N([C@H](C)CO)C[C@@H](C)[C@H](CN(C)C(=O)Nc1ccc(F)cc1)OCCCC[C@@H](C)O2,8.0[16.7 µM],24.6
Cc1ccc(S(=O)(=O)N[C@H]2CC[C@H](CCNS(=O)(=O)Cc3ccccc3)O[C@@H]2CO)cc1,-31.6[16.7 µM],148.1*
O=C(Nc1ccc(F)cc1)N[C@H]1CC[C@@H](CC(=O)N2CCOCC2)O[C@H]1CO,-7.1[16.7 µM],-16.8
O=C(CC1CC1)N[C@@H]1CC[C@@H](CCNS(=O)(=O)c2ccc(Cl)cc2)O[C@H]1CO,2.6[16.7 µM],-20.3
C[C@H](CO)N1C[C@H](C)[C@H](CN(C)Cc2ccccn2)Oc2ncc(C#CC(C)(C)O)cc2C1=O,-8.5[16.7 µM],-11.2
C[C@H]1CCCCO[C@@H](CN(C)Cc2ccccc2)[C@@H](C)CN([C@@H](C)CO)C(=O)c2cc(N(C)C)ccc2O1,28.5[16.7 µM],7.5
CNC(=O)C[C@@H]1CC[C@@H]2[C@@H](COc3ccc(NC(=O)c4ccc(C(F)(F)F)cc4)cc3C(=O)N2C)O1,12.3[16.7 µM],5.8
Cc1noc(C)c1S(=O)(=O)Nc1ccc2c(c1)C(=O)N([C@@H](C)CO)C[C@@H](C)[C@H](CN(C)C(=O)Nc1cccc3ccccc13)OCCCC[C@H](C)O2,10.3[16.7 µM],3.6
C[C@H](O)C#Cc1ccc2c(c1)O[C@@H](CN(C)C(=O)C1CC1)[C@@H](C)CN([C@@H](C)CO)S2(=O)=O,-20.0[16.7 µM],23.8
Cc1ccc(S(=O)(=O)N(C)C[C@@H]2Oc3c(NC(=O)NC4CCCCC4)cccc3C(=O)N([C@@H](C)CO)C[C@H]2C)cc1,-19.0[16.7 µM],18.2
CCCNC(=O)C[C@H]1CC[C@H]2[C@H](COc3ccc(NC(=O)NCC)cc3C(=O)N2C)O1,-1.9[16.7 µM],-7.0
C[C@@H]1CN([C@@H](C)CO)C(=O)c2cc(NS(=O)(=O)c3ccc(Cl)cc3)ccc2O[C@@H]1CN(C)S(=O)(=O)c1ccc(Cl)cc1,-46.9[16.7 µM],-2.8
COc1ccc(S(=O)(=O)Nc2ccc3c(c2)C(=O)N([C@@H](C)CO)C[C@H](C)[C@H](CN(C)C(=O)Cc2ccccc2)OCCCC[C@H](C)O3)cc1,29.9[16.7 µM],2.8
C[C@H]1CN([C@@H](C)CO)C(=O)Cc2cc(NC(=O)CCCN(C)C)ccc2O[C@@H]1CN(C)CC1CCCCC1,15.5[16.7 µM],-11.6
CN(C)C(=O)C[C@H]1C[C@@H]2c3cc(NC(=O)C4CCOCC4)ccc3O[C@@H]2[C@@H](CO)O1,-0.8[16.7 µM],-3.9
C[C@H](CO)N1C[C@H](C)[C@@H](CN(C)CC2CCCC2)Oc2ncc(-c3cccc(F)c3)cc2C1=O,17.6[16.7 µM],-13.3
COc1cc2c(cc1OC)CN(C(=O)[C@@H]1[C@H]3C(=O)O[C@H](c4ccccc4)[C@H](c4ccccc4)N3[C@H](c3ccc(O)cc3)[C@@]13C(=O)Nc1ccccc13)CC2,-0.8[16.7 µM],-10.9
C[C@H]1CN([C@@H](C)CO)S(=O)(=O)c2ccc(C3=CCCCC3)cc2O[C@H]1CN(C)Cc1ccccn1,3.2[16.7 µM],-21.1
CNC(=O)C[C@H]1CC[C@H]2[C@@H](COc3ccc(NC(=O)Nc4ccc(F)c(F)c4)cc3C(=O)N2C)O1,5.4[16.7 µM],30.7
COCC(=O)Nc1ccc2c(c1)C(=O)N(C)[C@H]1CC[C@@H](CC(=O)NCc3cccc(F)c3)O[C@H]1CO2,9.8[16.7 µM],-6.7
COc1ccc(-c2cnc3c(c2)C(=O)N([C@H](C)CO)C[C@H](C)[C@@H](CN(C)C(=O)Cc2ccncc2)O3)cc1,-20.3[16.7 µM],-5.3
COc1ccc(NC(=O)Nc2ccc3c(c2)CC(=O)N([C@@H](C)CO)C[C@H](C)[C@H](CN(C)S(=O)(=O)c2ccc(F)cc2)O3)cc1,27.2[16.7 µM],3.3
C[C@H](CO)N1C[C@H](C)[C@H](CN(C)Cc2ccc(Oc3ccccc3)cc2)Oc2ccc(NS(=O)(=O)c3ccc(F)cc3)cc2CC1=O,-19.1[16.7 µM],2.8
COc1ccc(S(=O)(=O)N(C)C[C@H]2Oc3c(NC(=O)C4CC4)cccc3C(=O)N([C@@H](C)CO)C[C@@H]2C)cc1,-1.2[16.7 µM],5.7
C[C@H]1CN([C@@H](C)CO)C(=O)c2cccc(NS(=O)(=O)c3ccccc3)c2O[C@@H]1CN(C)CC1CCCCC1,-8.3[16.7 µM],9.2
O=C(C[C@H]1CC[C@@H](NC(=O)Nc2cc(F)ccc2F)[C@@H](CO)O1)Nc1ccc(-c2ccccc2)cc1,-7.9[16.7 µM],11.9
CC(C)NC(=O)N(C)C[C@H]1Oc2cc(C#CCN(C)C)ccc2S(=O)(=O)N([C@H](C)CO)C[C@H]1C,-11.2[16.7 µM],4.6
C[C@H](CO)N1C[C@H](C)[C@@H](CN(C)Cc2ccc(C(F)(F)F)cc2)Oc2ccc(NS(=O)(=O)c3cn(C)cn3)cc2C1=O,-18.8[16.7 µM],-9.8
Cc1noc(C)c1NC(=O)N(C)C[C@@H]1OCCCC[C@@H](C)Oc2ccc(NC(=O)Nc3cccc4ccccc34)cc2C(=O)N([C@H](C)CO)C[C@@H]1C,24.9[16.7 µM],-5.9
COCc1cn(CC[C@@H]2CC[C@@H](NC(=O)Nc3ccc(F)cc3)[C@H](CO)O2)nn1,2.0[16.7 µM],3.2
C[C@@H]1CN([C@H](C)CO)C(=O)c2cc(C#CC3CC3)cnc2O[C@@H]1CN(C)C(=O)c1ccccc1,2.4[16.7 µM],-1.0
CC(C)CC#Cc1cnc2c(c1)C(=O)N([C@H](C)CO)C[C@H](C)[C@@H](CN(C)C(=O)Nc1ccccc1F)O2,-0.2[16.7 µM],21.8
COc1ccc(NC(=O)Nc2ccc3c(c2)C(=O)N([C@@H](C)CO)C[C@H](C)[C@H](CN(C)Cc2ccc(C(F)(F)F)cc2)OCCCC[C@H](C)O3)cc1,55.7*[16.7 µM],3.3
C[C@H](CO)N1C[C@H](C)[C@H](CN(C)C(=O)c2ccc3c(c2)OCO3)Oc2ncc(C3=CCCCC3)cc2C1=O,9.5[16.7 µM],-2.5
CNC[C@@H]1OCCCC[C@@H](C)Oc2ccc(NC(=O)NC3CCCCC3)cc2C(=O)N([C@H](C)CO)C[C@H]1C,-5.0[16.7 µM],7.4
CC(=O)N(C)C[C@H]1Oc2ncc(-c3ccc(F)cc3)cc2C(=O)N([C@@H](C)CO)C[C@@H]1C,4.1[16.7 µM],-6.1
O=C(N[C@H]1c2ccccc2C[C@H]1O)C1=C[C@H](c2coc3ccccc3c2=O)C[C@H](OCCCCO)O1,0.0[16.7 µM],16.0
COc1ccc(NC(=O)Nc2ccc3c(c2)C(=O)N([C@H](C)CO)C[C@@H](C)[C@H](CN(C)Cc2ccc(Cl)c(Cl)c2)OCCCC[C@H](C)O3)cc1,27.0[16.7 µM],3.3
C[C@@H]1CCCCO[C@@H](CN(C)Cc2ccncc2)[C@@H](C)CN([C@@H](C)CO)C(=O)c2cc(NS(=O)(=O)c3ccc(F)cc3)ccc2O1,2.5[16.7 µM],-8.0
C[C@@H]1CCCCO[C@@H](CN(C)C(=O)c2ccccc2)[C@@H](C)CN([C@@H](C)CO)C(=O)c2cc(NC(=O)Cc3ccccc3)ccc2O1,-47.8[16.7 µM],41.1
C[C@@H]1CCCCO[C@H](CN(C)S(=O)(=O)c2ccc(Cl)cc2)[C@H](C)CN([C@@H](C)CO)C(=O)c2cc(NC(=O)C3CCCCC3)ccc2O1,23.3[16.7 µM],-9.4
C[C@@H]1CCCCO[C@@H](CN(C)Cc2ccc3c(c2)OCO3)[C@H](C)CN([C@@H](C)CO)C(=O)c2cc(NC(=O)CCC(F)(F)F)ccc2O1,-8.0[16.7 µM],16.8
C[C@H](CO)N1C[C@H](C)[C@H](CN(C)CC2CCCCC2)OCCCC[C@H](C)Oc2ccc(NC(=O)Nc3ccc(F)cc3)cc2C1=O,4.0[16.7 µM],14.5
O=C(C[C@@H]1CC[C@@H](NC(=O)C2CCC2)[C@@H](CO)O1)NCCCN1CCOCC1,3.9[16.7 µM],-13.3
COc1ccc(S(=O)(=O)N(C)C[C@H]2OCCCC[C@@H](C)Oc3ccc(NC(=O)c4ccccc4)cc3C(=O)N([C@@H](C)CO)C[C@@H]2C)cc1,-18.7[16.7 µM],-13.4
CCC(=O)N1C[C@@H](C)[C@H](OC)CN(C)C(=O)c2cc(NC(=O)Nc3cccc(F)c3)ccc2OC[C@H]1C,-6.8[16.7 µM],12.9
CNC[C@H]1Oc2cc(C#CC3CCCCC3)ccc2S(=O)(=O)N([C@@H](C)CO)C[C@H]1C,-76.4[16.7 µM],8.9
C[C@H](CO)N1C[C@H](C)[C@@H](CN(C)Cc2ccc3c(c2)OCO3)Oc2cc(-c3cccc(C(=O)N(C)C)c3)ccc2S1(=O)=O,15.1[16.7 µM],-2.1
C[C@@H]1CN([C@H](C)CO)C(=O)Cc2cc(NC(=O)Nc3ccc(F)cc3)ccc2O[C@@H]1CN(C)S(=O)(=O)c1ccc(F)cc1,12.9[16.7 µM],-3.3
C[C@H](CO)N1C[C@H](C)[C@H](CN(C)CC2CC2)Oc2c(NC(=O)c3cnccn3)cccc2C1=O,15.2[16.7 µM],-5.9
COc1ccc(NC(=O)N(C)C[C@@H]2Oc3cc(-c4ccc(C)cc4)ccc3S(=O)(=O)N([C@H](C)CO)C[C@H]2C)cc1,-5.8[16.7 µM],-5.9
CNC[C@H]1Oc2cc(C#CC3CCCC3)ccc2S(=O)(=O)N([C@@H](C)CO)C[C@@H]1C,-3.5[16.7 µM],6.8
O=C(C[C@@H]1C[C@@H]2c3cc(NC(=O)C4CCC4)ccc3O[C@@H]2[C@@H](CO)O1)NCc1ccc2c(c1)OCO2,78.5*[16.7 µM],-12.0
Cc1ccc(S(=O)(=O)N(C)C[C@H]2OCCCC[C@@H](C)Oc3ccc(NC(=O)Nc4ccc5c(c4)OCO5)cc3C(=O)N([C@H](C)CO)C[C@@H]2C)cc1,4.1[16.7 µM],-2.8
C[C@@H]1CN([C@H](C)CO)S(=O)(=O)c2ccc(C#CCN(C)C)cc2O[C@@H]1CN(C)Cc1ccc2c(c1)OCO2,-15.7[16.7 µM],0.2
COc1ccc(S(=O)(=O)Nc2ccc3c(c2)C(=O)N([C@@H](C)CO)C[C@H](C)[C@H](CN(C)CC2CCCCC2)OCCCC[C@H](C)O3)cc1,8.1[16.7 µM],25.2
C[C@@H]1CN([C@H](C)CO)C(=O)c2cccc(NS(=O)(=O)c3ccc(F)cc3)c2O[C@H]1CN(C)Cc1ccc(-c2ccccc2)cc1,12.9[16.7 µM],4.1

# A section of the results above:
SMILES,HIV Env fusion,UUG fidelity
O=C(C[C@@H]1C[C@@H]2c3cc(NC(=O)C4CCC4)ccc3O[C@@H]2[C@@H](CO)O1)NCc1ccc2c(c1)OCO2,78.5*[16.7 µM],-12.0
Cc1ccc(S(=O)(=O)N(C)C[C@H]2OCCCC[C@@H](C)Oc3ccc(NC(=O)Nc4ccc5c(c4)OCO5)cc3C(=O)N([C@H](C)CO)C[C@@H]2C)cc1,4.1[16.7 µM],-2.8
C[C@@H]1CN([C@H](C)CO)S(=O)(=O)c2ccc(C#CCN(C)C)cc2O[C@@H]1CN(C)Cc1ccc2c(c1)OCO2,-15.7[16.7 µM],0.2
COc1ccc(S(=O)(=O)Nc2ccc3c(c2)C(=O)N([C@@H](C)CO)C[C@H](C)[C@H](CN(C)CC2CCCCC2)OCCCC[C@H](C)O3)cc1,8.1[16.7 µM],25.2
C[C@@H]1CN([C@H](C)CO)C(=O)c2cccc(NS(=O)(=O)c3ccc(F)cc3)c2O[C@H]1CN(C)Cc1ccc(-c2ccccc2)cc1,12.9[16.7 µM],4.1

# Remaining list, next part
SMILES,HIV Env fusion,UUG fidelity
CN1C(=O)c2cc(NC(=O)c3ccc(F)cc3)ccc2OC[C@@H]2O[C@@H](CC(=O)O)CC[C@@H]21,5.0[16.7 µM],-0.5
C[C@H](CO)N1C[C@H](C)[C@@H](CN(C)Cc2ccc(Oc3ccccc3)cc2)Oc2ccc(NC(=O)CCC(F)(F)F)cc2C1=O,6.7[16.7 µM],21.8
C[C@@H]1CN([C@H](C)CO)C(=O)c2cc(C#Cc3cccnc3)cnc2O[C@H]1CN(C)S(C)(=O)=O,-3.1[16.7 µM],0.8
C[C@H]1CN([C@@H](C)CO)C(=O)c2cccc(NC(=O)C3CCOCC3)c2O[C@@H]1CN(C)C(=O)NC1CCCCC1,16.4[16.7 µM],20.9
C[C@@H](NC(=O)C[C@@H]1C=C[C@@H](NS(=O)(=O)c2cccc(F)c2)[C@H](CO)O1)c1ccccc1,-9.2[16.7 µM],-5.7

# Records above shown as hits in HIV Env fusion:
SMILES,HIV Env fusion,UUG fidelity
COc1ccc(NC(=O)Nc2ccc3c(c2)C(=O)N([C@@H](C)CO)C[C@H](C)[C@H](CN(C)Cc2ccc(C(F)(F)F)cc2)OCCCC[C@H](C)O3)cc1,55.7*[16.7 µM],3.3
O=C(C[C@@H]1C[C@@H]2c3cc(NC(=O)C4CCC4)ccc3O[C@@H]2[C@@H](CO)O1)NCc1ccc2c(c1)OCO2,78.5*[16.7 µM],-12.0

# Screens as filed in PubChem.
